AID504770: growth inhibition of E. coli YBA685, primary screen, V. cholerae RctB inhibitors | z-score (concentration not given with the values) | E. coli YBA685 rctB-dependent plasmid, OD600 growth, 3 h; active compounds read low | actives 0.27% (n = 130,000) | AID 504770, 2011;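 active means z-score under -2 on both plates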;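 further: wells of about 30 µL received 100 nL stock; score is relative to mean and SD of the test wells; the first replicate is given; strong numbers were not always called active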
CapD inh: Bacillus anthracis CapD inhibitors, primary screen, biochemical, fluorescence intensity; z-score (concentration not given with the values); AID 492967, 2010; purified CapD enzyme, fluorescence intensity read-out; active compounds read low; some hits fall short of the stated cut; actives 0.23% (n = 140,000); CapD gamma-glutamyltranspeptidase (Bacillus anthracis Ames Ancestor);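 active means z-score under -4 in either of two replicates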;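 further: stock transfer was 100 nL into about 40 µL; score is relative to mean and spread of the plate; one replicate is shown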
Numbers without * were called inactive; . = no result given. Rows were taken by chance. Share with any hit: about 0.37%.

SMILES | AID504770 | CapD inh
CCOC(=O)C1CCN(C(=O)CSc2ccc(Cl)cc2)CC1 | 1.2 | -0.3
CC(=O)NCC(=O)N1CCN(Cc2ccc3c(c2)OCO3)CC1 | -0.55 | .
CC(=O)N1CCc2cc3nc(C)cc(C)c3cc21 | -0.9 | 3.3
CCC1(C)OC(=O)N(CCc2c(C)[nH]c3ccccc23)C1(C)O (stereo not drawn) | -0.1 | 0.64
COc1ccc(C(=O)N2C(=O)N(c3ccccc3)C3(C)CC2c2ccccc2O3)cc1 (stereo not drawn) | -0.25 | -0.23
CC(Nc1ccccn1)C(=O)N1CCN(Cc2ccccc2)CC1 (stereo not drawn) | . | -0.35
CC(C(=O)NCc1ccc(Cl)cc1)n1cccc1C(=O)c1ccccc1 (stereo not drawn) | -0.3 | -1.2
CCOC(=O)c1nn(-c2ccccc2)c(N=Nc2ccc3c(c2)OCO3)c1O | -0.1 | .
CCN(CC)CCn1cnc2ccccc21 | 0.75 | -0.06
CN(C)CCNc1ncnc2ccccc12 | -0.2 | .
CCN(CC)CCN1C(=O)c2ccccc2NC1c1cc(OC)c(OC)c(OC)c1 (stereo not drawn) | . | 27
O=S(=O)(c1ccc2c(c1)OCCO2)N1CC=C(c2ccccc2)CC1 | -0.3 | -0.08
COc1ccc(NS(=O)(=O)N(C)C)cn1 | 0.3 | -0.33
OC12CCCCC1C(c1ccc(Cl)cc1Cl)NCC2 (stereo not drawn) | 0.35 | 0.58
Cc1cccn2cc(CSc3nc4ccccc4o3)nc12 | -0.6 | .
Nc1ccc2c(c1)C(=O)N(CCC(=O)O)C2=O | -0.65 | -1.1
CCOC(=O)c1ccc(N2COc3ccc4c5c(c(=O)oc4c3C2)CCC5)cc1 | -0.6 | 5.5
CC(C)C1C(=O)Nc2ccc(S(=O)(=O)NCc3ccccc3)cc21 (stereo not drawn) | 0.35 | 2.4
Cc1ccccc1NC1CC(C)Nc2c(C)cccc21 (stereo not drawn) | 0.35 | -0.6
CCN1CCN(CCNC(=O)C2CCC(Cn3c(=S)[nH]c4ccccc4c3=O)CC2)CC1 (stereo not drawn) | -1.2 | -0.69
Cc1cccc(OCCBr)c1 | -0.6 | -0.75
Cc1cc2ccccn2c1C(=O)c1nc(N2CCN(c3ccc(F)cc3)CC2)ncc1Cl | 0.05 | .
COc1ccc(C/C(C)=N/NC(=O)c2cccs2)cc1 | 0.85 | .
FC(F)(F)c1ccc(N2CCC(c3c[nH]c4ccccc34)CC2)nc1 | . | 0.27
CC(C)(C)C(Cc1ccccc1)C(=O)O (stereo not drawn) | -0.85 | -0.56
Cc1onc(-c2c(F)cccc2Cl)c1C(=O)N(C)CCc1ccccn1 | -0.05 | 0.75
O=c1c(Cl)c(NCc2ccccn2)cnn1C12CC3CC(CC(C3)C1)C2 | 0.1 | 0
O=C(O)C1Cc2c([nH]c3ccccc23)C(c2ccccc2O)N1 (stereo not drawn) | . | 0.2
COc1cccc(OC)c1C(=O)Nc1ccc(Br)cc1C | -0.3 | 0.22
O=C(CCCn1c(=S)[nH]c2ccc(Br)cc2c1=O)N1CCN(c2ccccc2)CC1 | . | -0.63
CC1SCC(=O)N(c2ccc(F)cc2F)C1=O (stereo not drawn) | 0.1 | -0.65
Cc1ccc(Nc2nc3ccccc3s2)cc1Cl | -0.7 | 0.55
CN(C)CC(O)c1ccc2cc[nH]c2c1 (stereo not drawn) | -0.7 | 0.95
C=CCSc1n[nH]c(-c2ccccc2)n1 | -0.45 | 0.69
Cc1cccc(-c2noc(CN(C(=O)/C=C/c3ccccc3Cl)C(C)C)n2)c1 | 0.35 | -0.85
Cc1c(NC(=S)N2CCN(c3ccc(F)cc3)CC2)c(=O)n(-c2ccccc2)n1C | -0.45 | -0.29
Cc1cccc(-c2nc3sc(C)cc3c(=O)o2)c1 | 1.5 | .
CC1(C)C2CC1[C@](C)(O)[C@H](O)C2 (stereo partly drawn) | -0.4 | 0.08
COc1ccc(N2C(=O)NC(=O)/C(=C/c3c(OC)ccc4ccccc34)C2=O)cc1 | . | -0.11
CCOc1ccc(/C=C2/SC(=S)N(CN3CCOCC3)C2=O)cc1 | . | -1
CC(=O)C1=NN(c2cccc(Cl)c2)C2(S1)SC(c1ccc(C)cc1)(c1ccc(C)cc1)c1ccccc12 (stereo not drawn) | . | -0.22
Cc1ccc(S(=O)(=O)N2CCN(c3ccc(C(F)(F)F)cc3)CC2)cc1[N+](=O)[O-] | . | -0.39
CCCCCCN1C(=O)C(=O)/C(=C(\O)c2ccc(C)cc2)C1c1ccccc1Cl (stereo not drawn) | . | -0.005
CS(=O)(=O)c1ccc(-n2cc(-c3ccccc3NS(=O)(=O)c3cccc(C(F)(F)F)c3)cn2)cc1 | . | -0.61
Clc1ccc(CSCc2nc(-c3ccsc3)no2)cc1 | -0.2 | 0.34
O=C(CCCc1ccccc1)NC1CCCC1 | -0.8 | .
CCOC(=O)C1=C(O)CCN(C)C1 | -0.05 | -0.3
O=C(N1CCOCC1)C12CC3CCC(CC(C3)C1)C2 | -0.4 | 0.34
c1ccc(Cc2nnc(-c3ccccc3)o2)cc1 | 0 | 0.15
O=C(Cn1ncc(Cl)c(Cl)c1=O)NCc1ccccc1 | -0.15 | .
Cc1cccc(C(=O)N2CCN(c3ccc(C(F)(F)F)cn3)CC2)c1C | -0.45 | .
CC1(C)CC(=O)C2=C(C1)c1c(ccc3ccccc13)NC2c1cc2ccccc2[nH]1 (stereo not drawn) | . | -0.29
COc1ccc(Oc2cc(C)nc3ccccc23)cc1 | . | 0.26
CC(C)C1C(C#N)=C(N)Oc2nc(SCc3ccccc3)[nH]c(=O)c21 (stereo not drawn) | 1.6 | 0.43
Cc1nn(-c2ccccc2)c(C)c1CCC(=O)O | 0.25 | 0.05
COc1cc(C=Nc2c(C)n(C)n(-c3ccccc3)c2=O)cc(Br)c1O | . | 0.16
NCCc1nnc2ccccn12 | 0 | .
NC(c1ccccc1)C(F)(F)C(=O)O (stereo not drawn) | -0.1 | 0.63
O=C1NC(c2cccc(F)c2)c2c1n[nH]c2-c1cccs1 (stereo not drawn) | -0.4 | -0.23
COC(=O)C1=CN(N(C(C)=O)C(C)=O)C(=O)CC1 | -0.95 | -9.2*

Individual results from above:
CC(C)C1C(C#N)=C(N)Oc2nc(SCc3ccccc3)[nH]c(=O)c21 (stereo not drawn) in AID504770 has 1.6
CC1(C)CC(=O)C2=C(C1)c1c(ccc3ccccc13)NC2c1cc2ccccc2[nH]1 (stereo not drawn) in CapD inh has -0.29
O=C(CCCc1ccccc1)NC1CCCC1 in AID504770 has -0.8
COc1cc(C=Nc2c(C)n(C)n(-c3ccccc3)c2=O)cc(Br)c1O in CapD inh has 0.16
NCCc1nnc2ccccn12 in AID504770 has 0
Cc1cccc(C(=O)N2CCN(c3ccc(C(F)(F)F)cn3)CC2)c1C in AID504770 has -0.45
O=C1NC(c2cccc(F)c2)c2c1n[nH]c2-c1cccs1 (stereo not drawn) in AID504770 has -0.4

New compounds follow:
SMILES | AID504770 | CapD inh
CC1CCC/C(=C/Nc2ccccc2C(=O)O)C1=O (stereo not drawn) | -0.8 | 52
CN(C)CC(O)COC(c1ccccc1)c1ccccc1 (stereo not drawn) | 0.2 | .
Cc1nn(-c2ccccc2)c(C)c1/C=N/NC(=O)c1cccnc1 | . | -0.94
CC1=C(C(=O)Nc2ccccc2)C(c2ccc(Cl)cc2)NC(=S)N1 (stereo not drawn) | . | -0.65
COC(=O)c1c(C)oc2ccc(N(C(=O)c3cccc([N+](=O)[O-])c3)S(=O)(=O)c3ccc(C)cc3)cc12 | . | -0.41
CC(C)n1cc(C(=O)O)cn1 | -0.95 | -0.9
CCOC(=O)c1c(NC(=O)c2cccc([N+](=O)[O-])c2)sc(C(=O)Nc2cccc(Cl)c2C)c1C | . | -0.53
FC(F)(F)c1cnc(-c2cnoc2)c(Cl)c1 | 1.2 | 0.6
Cc1ccc(CNC(=O)C(C)Sc2nc3nc(C)cc(C)n3n2)cc1 (stereo not drawn) | 0.1 | 0.095
Cc1cc(C)c2c(n1)nn1c(C)c(CCC(=O)Nc3ccc4c(c3)OCO4)c(C)nc21 | 2.3 | -0.55
Cc1ccc(-n2c(=O)c3oc4ccccc4c3n(CC(=O)NC(C)(C)C)c2=O)cc1 | 2.6 | .
CCOc1ccc(N2CC(O)(c3ccc(OC)cc3)[N+]3=C2SCCC3)cc1 (stereo not drawn) | . | 0.38
Fc1cc(F)c2nc(N3CCOCC3)sc2c1 | -1.2 | .
COC(CNC(=O)c1cc(Sc2nnc(C)s2)nc2ccccc12)OC | -0.25 | 31
CC(C)N=Cc1ccc(-c2ccccc2)cc1 | -0.45 | 0.55

Filtered by structure, the entries above with a tert-butyl group
SMILES | AID504770 | CapD inh
CC(C)(C)C(Cc1ccccc1)C(=O)O (stereo not drawn) | -0.85 | -0.56
Cc1ccc(-n2c(=O)c3oc4ccccc4c3n(CC(=O)NC(C)(C)C)c2=O)cc1 | 2.6 | .

Remaining list, next part
SMILES | AID504770 | CapD inh
Cn1c(SCc2cccc(-c3noc(-c4ccc(Cl)cc4)n3)c2)nnc1C(F)(F)F | 0.45 | -0.035
Oc1ccccc1C(Nc1ccccn1)c1ccc2cccnc2c1O (stereo not drawn) | -0.15 | -0.24
Cc1c(C(=O)Nc2nc3ccccc3s2)sc2ncn(Cc3ccccc3F)c(=O)c12 | . | 0.72
CS(=O)(=O)c1cccc(S(=O)(=O)Nc2cccc(C(F)(F)F)c2)c1 | 0 | -0.005
O=C(OCCc1ccc(Cl)cc1Cl)N1CCN(c2ccc(C(F)(F)F)cn2)CC1 | . | 1.8
CC(C)C(C(=O)O)N1C(=O)c2ccccc2C1=O (stereo not drawn) | 1.1 | 0.095
CC(COc1ccc(C(C)C)cc1)NC(=O)c1ccc(Br)o1 (stereo not drawn) | -0.55 | -0.06
O=C(Cc1ccccc1)Nc1cccc(-c2nc3ncccc3o2)c1 | 0.15 | 14
O=c1[nH]nc(-c2ccccc2)[nH]1 | -0.7 | -0.38
C=CCNc1nc(SCc2ccccc2)nc(-c2ccc(C)cc2)c1C#N | . | 0.88
CCOc1ccc(-c2nc(CN3CCCCC3)cs2)cc1 | -0.45 | .
Cc1cccc(-n2c(Cc3cc(=O)[nH]c(=O)[nH]3)nnc2SCC(=O)NC2CCCC2)c1 | 0.1 | .
CNc1nc(-c2c[nH]c3ccc(F)cc23)cs1 | -0.4 | .
O=C(O)CSc1c2c(nc3cc(C(=O)NCc4cccs4)ccc13)CCCC2 | -2.1 | -0.21
COC(=O)c1c2c(nc3ccccc13)CCCCC2 | -0.35 | .

Gathered by group, the entries above with a nitro group on carbon
SMILES | AID504770 | CapD inh
Cc1ccc(S(=O)(=O)N2CCN(c3ccc(C(F)(F)F)cc3)CC2)cc1[N+](=O)[O-] | . | -0.39
COC(=O)c1c(C)oc2ccc(N(C(=O)c3cccc([N+](=O)[O-])c3)S(=O)(=O)c3ccc(C)cc3)cc12 | . | -0.41
CCOC(=O)c1c(NC(=O)c2cccc([N+](=O)[O-])c2)sc(C(=O)Nc2cccc(Cl)c2C)c1C | . | -0.53

Carrying on.
SMILES | AID504770 | CapD inh
CSc1nnc(CNC(=O)C2CCCC2)n1C | 0.05 | .
Cc1ccc(-n2cc(-c3ccc4c(c3)OCO4)[nH]c2=S)c(C)c1 | -0.25 | -0.49
N#Cc1cccc(C(c2nnnn2Cc2ccccc2)N2CCCC2)c1 (stereo not drawn) | 0.5 | .
Cn1nnnc1SCCC(=O)Nc1ccccc1 | 0.4 | .
Cc1cn(COCCO)c(=O)[nH]c1=O | 1.1 | -0.68
CCOC(=O)NC(=O)Cn1nnc(-c2cccc(C(F)(F)F)c2)n1 | 0.1 | .
Cc1ccc(-c2nnc(Nc3ccc(S(N)(=O)=O)cc3)c3ccccc23)cc1S(=O)(=O)N1CCN(C)CC1 | 0.25 | 0.3
CC1(C)CC(=O)C2=C(C1)Nc1ccc3ccccc3c1C2c1ccc(Cl)cc1Cl (stereo not drawn) | . | 1.9
O=C(O)c1ccc(N=Cc2cccn2-c2ccc(Br)cc2)cc1 | 0.85 | .
CC(NC(=O)COc1ccc(F)cc1Cl)C1CCCO1 (stereo not drawn) | -0.3 | -0.38
Cc1ccc2c(c1)NC(C)(C)c1ssc(=Nc3cccc(C)c3C)c1-2 | . | -0.41
N#Cc1ccc(NC(=O)c2cccs2)cc1 | -0.7 | .
O=C1c2ccccc2C(=O)N1CC1c2ccccc2CCN1S(=O)(=O)c1cnc[nH]1 (stereo not drawn) | -0.7 | 5.4
CCCN1C(=O)/C(=c2\sc3nc(=O)c(-c4ccccc4)nn3c2=O)c2ccccc21 | -0.05 | 2
O=C(OCc1ccco1)c1sc2sccc2c1Cl | -0.05 | -0.22
Nc1cc(=O)nc(SCC(=O)NCc2ccccc2)n1CCc1ccccc1 | -0.2 | 0.04
CSc1sc(C(=O)NCC2CC2)c(-c2cccs2)c1C#N | -0.55 | -0.53
Cc1nc2c3ccccc3n3c(CCCC(=O)N4CCC(C(N)=O)CC4)nnc3n2n1 | -0.55 | -0.56
CSC1=N/C(=C\c2ccc(Br)cc2)C(=O)S1 | -0.25 | 0.055
CC(=O)Nc1cccc2c1C(=O)NC2=O | 0.2 | .
C=C(CSc1nnc2n(-c3ccc(C)cc3)c(=O)c3c4c(sc3n12)CCC4)c1ccccc1 | . | 0.35
NC(CC(=O)O)c1ccccc1C(F)(F)F (stereo not drawn) | 0 | -0.67
C=CCN1C(=O)C(CC(=O)NCC(=O)O)SC1=Nc1ccc(Cl)cc1 (stereo not drawn) | 0.05 | .
Cc1cc(Br)ccc1N1C(=O)NC(=O)/C(=C/c2cn(CC(=O)N3CCOCC3)c3ccccc23)C1=O | . | -0.23
Cc1ccc2nc3sc(C(=O)O)c(N)c3cc2c1 | 0.15 | .
C=CCNC(=O)c1ccc(-c2cc(C(F)(F)F)ccc2Cl)o1 | 1 | .

Bioassay records (PubChem BioAssay)
